Compound activity deposited in PubChem by several laboratories.
RN4220 kill: S. aureus RN4220 growth inhibition; inhibition, % (test concentration not listed); 330,000 compounds, 0.33% hits; AID 1259311; OD600, 16 h;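 active means z-score of -3 or lower and OD600 up to 0.18 on both plates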;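 further: plate controls were untreated cells for no effect and reference antibiotic for full effect; stock transfer was 100 nL into about 80 µL; one replicate is shown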
Autofluor counter: counter-screen for toxin protease inhibitors: compound fluorescence | compound autofluorescence counterscreen, microsphere flow cytometry; hits give high values | 360,000 compounds, 3.1% hits | fluorescence intensity (concentration not given with the values);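 active means at least 3 SD above the mean of all compounds, about 16000 in these data; inconclusive means too few beads counted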;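 further: 100 nL of 1 mM stock went into each well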
PrP 5UTR inh: suppresses PrP 5' UTR mRNA reporter expression. AID 488862. cell-based PrP 5' UTR mRNA reporter, plate reader. 340,000 compounds, 0.35% hits. inhibition, % (no concentration beside the values);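 active means every replicate at 50% or more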;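 further: 0 = median of the neutral control wells; tested in H4 reporter cells; numbers are from one replicate; inactives centre near -14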
BJeLR lethal: BJeLR cell viability loss; BJeLR (HRASV12) viability, CellTiter-Glo ATP luminescence, 48 h; reference of the scale not given here; inhibition, % (concentration not given with the values); 300,000 compounds, 0.17% hits; AID 1554;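 active means replicate mean above 50%; inconclusive means above 50% but judged a plate artefact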;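 further: 50 nL library stock added to about 25 µL; numbers are from one replicate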
Sa ugtP lethal: growth inhibition of S. aureus ugtP deletion strain | AID 1259309 | 330,000 compounds, 0.54% hits | growth inhibition, % (concentration not given with the values) | S. aureus RN4220 ugtP deletion, OD600 growth, 16 h; some inactives read as strong as hits;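 active means z-score under -3 and OD600 up to 0.15 on both plates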;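 further: plate controls were untreated wells for no effect and antibiotic for full effect; wells of about 80 µL received 100 nL stock; the first replicate is given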
Mtb hypoxia inh: Mtb hypoxia fluorescent reporter inhibition | M. tuberculosis hypoxia-regulated fluorescent reporter, fluorescence | fluorescence inhibition, % (test concentration not listed) | 300,000 compounds, 0.1% hits | AID 1159583;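 active means 35 to 45% if threefold the growth effect, above 45% if 1.5-fold the growth effect; inactive means the rest, general growth blockers included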;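 further: wells of about 50 µL received 100 nL stock; 0% = vehicle wells and 100% = reference inhibitor wells; whole bacteria with a GFP reporter of the hypoxia response; strong numbers were not always called active; many hits fall short of the cut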
Mtb hypoxia inh growth: second read-out of Mtb hypoxia inh, no call of its own (marks repeat the call); growth inhibition, %; measured here: M. tuberculosis growth (absorbance);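 0% = vehicle and 100% = reference antibiotic; read after six days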
* = called active by the depositor; ? = inconclusive; · = no result given.

The first 2 compounds, ahead of the listing:
SMILES | RN4220 kill | Autofluor counter | PrP 5UTR inh | BJeLR lethal | Sa ugtP lethal | Mtb hypoxia inh | Mtb hypoxia inh growth
O=C(/C=C/c1ccc(Cl)cc1Cl)c1cccnc1 | 24 | 2606 | -6 | -7 | 19 | · | ·
Cc1cnc(NC(=O)c2ccccn2)s1 | 2.8 | 4058 | 9 | -9 | 11 | 2 | -3

Main list, from the start:
SMILES | RN4220 kill | Autofluor counter | PrP 5UTR inh | BJeLR lethal | Sa ugtP lethal | Mtb hypoxia inh | Mtb hypoxia inh growth
O=C(/C=C/c1ccc(Cl)cc1Cl)c1cccnc1 | 24 | 2606 | -6 | -7 | 19 | · | ·
Cc1cnc(NC(=O)c2ccccn2)s1 | 2.8 | 4058 | 9 | -9 | 11 | 2 | -3
N[C@@H](Cc1ccccc1)c1nnc(SCc2ccccc2Cl)o1 | 7.8 | 19863* | -39 | -2 | 4 | 6 | 6
CCCCn1c(O)c(C(C)=NC(Cc2c[nH]c3ccccc23)C(=O)OC)c(=O)[nH]c1=O (centres undefined) | 1.3 | 20728* | -35 | -3 | -4 | -5 | 4
O=C(OCc1nc2ccccc2c(=O)[nH]1)c1cccs1 | -0.3 | 3708 | -24 | 8 | -1 | 0 | 3
O=C(NNC(=O)c1cccs1)c1ccc(S(=O)(=O)N2CCCCC2)cc1 | 0.5 | 2144 | -21 | 6 | -2 | 9 | 6
O=C(Cn1cc2c(n1)CCCC2)NCc1ccccn1 | 1.4 | 6272 | 4 | 6 | 10 | · | ·
Cc1ccc(NC(=O)CSc2nnc(C3CC3)n2CC2CCCO2)c(C)c1 (centres undefined) | 1.9 | 5360 | -9 | 2 | 2 | -1 | 2
CCCN1CCN(C(=O)C2CCCN(c3ncnc4c3nc3n4CCCCC3)C2)CC1 (centres undefined) | 0.5 | 4311 | -5 | 7 | 2 | -4 | 0
CCOC(=O)c1ccc(NC(=O)c2nc[nH]c2C(=O)NC(CCCCNC(=O)OC(C)(C)C)C(=O)OC(C)(C)C)cc1 (centres undefined) | 2.6 | · | · | · | -26 | 8 | 17
O=C(NN=C1CCCCCC1)c1ccncc1 | 3.4 | 6545 | -8 | · | 5 | · | ·
CCOc1ccc(NC(=O)CC(C)=NNC(=O)Cc2cccs2)cc1 | 3.4 | · | · | · | 8 | 4 | 2
CNC(=O)c1ccc(CN(C)CC(=O)Nc2ccccc2C(=O)NC2CC2)cc1 | 3.2 | 3823 | -22 | · | 7 | 9 | 8
CCCC(=O)Nc1cccc(NC(=O)c2ccc3c(c2)OCO3)c1 | 14 | 3837 | -14 | -9 | -5 | 1 | 9
CCOCCCNc1nc2c([nH]1)c(=O)n(C)c(=O)n2C | 0.1 | 2431 | -23 | 6 | 3 | 0 | 4
O=C(Cn1cc(/C=N/O)c2ccccc21)N1CCOCC1 | · | 2883 | -13 | 3 | · | · | ·
COc1cccc(NC(=O)COc2coc(CN3CCN(c4ccccc4)CC3)cc2=O)c1 | 2.7 | 4370 | -12 | 7 | 7 | 11 | -7
O=C(N1CCCCCC1)n1c(Cc2ccccc2)nc2ccccc21 | 4.7 | 4574 | -12 | 1 | 3 | · | ·
CCN(c1cccc(C)c1)S(=O)(=O)c1ccc2c(c1)NC(=O)CCS2 | 11 | 4263 | -28 | 0 | 7 | 6 | -4
Cn1cnnc1SC1c2cccc3cccc(c23)C1NS(=O)(=O)c1ccc(Cl)cc1 (centres undefined) | -1.1 | 2163 | 0 | -3 | 1 | 8 | 4
Cc1nnc(C)n1N | 2.0 | 3096 | 6 | -3 | 1 | 9 | 4
CC1CCCN(CCCOc2ccc(Br)cc2Cl)C1 (centres undefined) | · | 3284 | -30 | 1 | · | · | ·
CCCNC(=O)CS(=O)Cc1nc(-c2ccccc2C)oc1C (centres undefined) | -0.6 | 6459 | 5 | 10 | -2 | 0 | 7
CS(=O)(=O)N1CCc2cc(C(=O)Nc3ccc(O)cc3)ccc21 | 0.1 | 4162 | 2 | -6 | 7 | 2 | 2
CC(C)CCN1C(=O)c2ccc(C(=O)Nc3cc(C(=O)O)cc(C(=O)O)c3)cc2C1=O | 6.4 | 3665 | -25 | -2 | 10 | 4 | 0
Further structures.
SMILES | RN4220 kill | Autofluor counter | PrP 5UTR inh | BJeLR lethal | Sa ugtP lethal | Mtb hypoxia inh | Mtb hypoxia inh growth
CCOC(=O)c1c(-c2ccccc2)csc1NC(=O)CSc1nncs1 | 4.0 | 2264 | -4 | -12 | 31 | 5 | 8
Cn1c(=O)[nH]c(NCCc2ccc(O)cc2)c([N+](=O)[O-])c1=O | 5.7 | 5443 | -22 | -4 | 8 | 13 | 13
CCSc1nc2c(c(=O)[nH]1)C(c1cccnc1)C(C(=O)OC)=C(C)N2 (centres undefined) | 0.2 | 4259 | -11 | 2 | 0 | · | ·
O=C(Cn1nnc(-c2ccc(F)cc2)n1)OCC(=O)c1ccccc1 | 2.5 | 4504 | -2 | 2 | 4 | 6 | 2
CCOc1ccc(C=NNC(=O)c2nnn(-c3nonc3N)c2-c2ccc(OCC)cc2)cc1 | 4.4 | · | · | · | 6 | -2 | 4
C/C(=N/NC(=O)c1ccco1)c1ccc(NC(=O)c2ccc(F)cc2)cc1 | · | 2151 | -77 | 14 | · | · | ·
COCCNC(=O)C1CC(=O)N(c2ccc(F)c(Cl)c2)C1 (centres undefined) | -0.3 | 4477 | -18 | 4 | 7 | 1 | 1
CC1(C)CC(=O)C=C(c2cccc(O)c2)C1 | -2.9 | 3014 | -9 | · | -12 | 4 | 3
CCCCCCc1cc2cc(C(=O)Nc3ccccc3OC)c(=O)oc2cc1O | · | 9087 | -18 | 2 | · | · | ·
Cc1c(NS(=O)(=O)c2cc(C(=O)NCCN(C)C)ccc2Cl)c(=O)n(-c2ccccc2)n1C | 25 | 3103 | -10 | 1 | -4 | 5 | 2
CC(Cc1ccccc1)N1C(=O)c2ccccc2C1=O (centres undefined) | -0.6 | 3721 | -28 | 4 | 0 | 15 | 7
CC1=NN(C(N)=S)C(=O)C1N=Nc1cccc(Cl)c1C (centres undefined) | 9.4 | 4035 | -53 | -1 | 13 | 11 | -5
Clc1cc(Cl)c(-c2cc(Cl)c(Cl)cc2Cl)cc1Cl | -13 | 5617 | -5 | · | 1 | 10 | 3
COc1ccc(C(=O)Nc2ccccc2C(=O)N2CCN(c3ccccc3)CC2)cc1 | 2.0 | 6149 | -15 | 0 | -1 | 2 | 7
Cc1ccc(Cl)cc1NC(=O)COC(=O)C1CC1 | 2.0 | 2462 | -33 | -3 | 3 | 18 | 18
Cc1ccc(NC(=O)c2sc(N)nc2-c2ccccc2)cc1C | 0.5 | 4343 | -11 | -7 | 8 | 0 | 7
CCOC(=O)C1CCN(S(=O)(=O)c2ccc(OCC)cc2)CC1 | -14 | 2929 | -12 | -3 | -3 | 16 | 5
O=C(Cn1c(=O)ccn(Cc2ccccc2)c1=O)Nc1cccc(S(=O)(=O)N2CCOCC2)c1 | 3.8 | ? | -6 | · | 5 | 17 | 8
COCCNc1oc(Cc2cccc3ccccc23)nc1C#N | 3.7 | 4006 | -7 | 0 | 0 | 12 | 3
CC1=CC(C)(C)n2c(O)c(N=NC(N)=S)c3cccc1c32 | 1.8 | 2482 | 6 | 21 | -2 | 6 | -7
CN(C)Cc1c(C(=O)N/N=C/c2cccc3ccccc23)nnn1-c1nonc1N | · | 3891 | -1 | 6 | · | · | ·
Cc1ccc(S(=O)(=O)N2CCN(C(=O)CN3C(=O)CNC3=O)CC2)cc1 | 3.1 | 7899 | -19 | · | -2 | 5 | -6
CN(C)/C=C1\Oc2ccc3ccccc3c2C1=O | · | 4313 | -90 | -1 | · | · | ·
COc1ccccc1CNC(=O)C(NS(=O)(=O)c1cccc2nsnc12)C(C)C (centres undefined) | 3.0 | 4401 | 6 | 14 | 4 | 4 | -6
CCCCn1c(O)c(/C=N/NC(=O)c2ccncc2)c(=O)[nH]c1=S | 3.6 | 3696 | -9 | 2 | -1 | 0 | -6
Other structures follow.
SMILES | RN4220 kill | Autofluor counter | PrP 5UTR inh | BJeLR lethal | Sa ugtP lethal | Mtb hypoxia inh | Mtb hypoxia inh growth
Cc1ccc(CN2CCSc3sccc3C2=O)cc1 | 4.4 | 3374 | -8 | 1 | 8 | 22 | 16
CCN(c1ccccc1)S(=O)(=O)c1cc(NC(=O)CSc2n[nH]c(=O)[nH]c2=O)ccc1Cl | -1.6 | 5545 | -25 | -1 | 0 | -4 | -6
O=C(c1cc(-c2ccccc2)nc2ccccc12)N1N=C(C(F)F)CC1(O)C(F)F (centres undefined) | -1.8 | 26128* | -45 | 4 | -13 | 2 | 0
Cc1ccc(C=NNC(=O)NN(C)c2ncc(C(F)(F)F)cc2Cl)cc1 | -0.8 | · | · | · | 9 | 4 | 6
CCn1c(SCC(=O)NN=Cc2ccccc2OCC(=O)O)nnc1-c1ccc(Cl)cc1 | 0.9 | · | · | · | 7 | 0 | -1
Cc1cc(NC(=O)c2ccc(NC(=O)C3CCCO3)cc2)ccc1Br (centres undefined) | -4.9 | 4772 | -47 | -2 | -7 | 9 | 5
CCOC(=O)CN1C(=O)N[C@@H](CCc2ccccc2)C(C(C)=O)=C1C | -6.1 | · | · | 3 | 0 | 5 | -2
CCC12CC3CC(C1)CC(C(=O)Nc1nn[nH]n1)(C3)C2 | -1.9 | 23265* | -15 | -6 | -4 | -3 | -1
Clc1ccc2nc(CSc3ncn[nH]3)cn2c1 | 4.8 | 4169 | -22 | 3 | 6 | 12 | 9
CC(C)C(OC(=O)c1cccs1)C(=O)NC1CCCCC1 (centres undefined) | 1.8 | 9644 | -9 | -1 | 1 | -84 | -11
COc1ccc(S(=O)(=O)Nc2cccc(NC(C)=O)c2)cc1 | 0.4 | 17504* | -8 | 0 | 3 | 4 | 6
O=C(NC(Cc1ccccc1)C(=O)O)/C(=C/c1ccc(F)cc1)NC(=O)c1ccccc1 (centres undefined) | 3.1 | 2335 | -17 | 1 | 3 | 10 | 8
CS(=O)(=O)N1CCN(c2ccccc2NC(=O)Nc2cccc(Cl)c2)CC1 | -8.6 | 2834 | -13 | -6 | -9 | 2 | -10
Cc1ccc(NC(=O)c2cc(N3C(=O)C=CC3=O)ccc2Cl)cc1C | 12 | 2495 | -10 | -7 | 12 | 1 | -2
CCC(C)(C)c1nnc(NC(=O)c2ccc([N+](=O)[O-])cc2)s1 | 5.9 | 4307 | -10 | -4 | -4 | 13 | 13
COc1ccc(CCNC(=O)COC(=O)/C=C/c2cccs2)cc1OC | 6.5 | 3191 | -25 | 2 | 5 | 12 | 8
COCCNC(=O)C(OC(=O)c1cccs1)c1ccc(F)cc1 (centres undefined) | 9.6 | 3946 | -20 | -3 | 11 | 4 | 6
CC(=O)c1c(C)[nH]c(C(=O)N(C)C(c2ccccc2)c2ccccc2)c1C | 8.7 | 4638 | -25 | 0 | -4 | 7 | 5
O=C1OCCC1Sc1nnc(-c2cccs2)n1Cc1ccccc1 (centres undefined) | 6.2 | 9346 | -21 | -7 | 2 | 1 | 5
COc1cccc(NC(=O)c2ccco2)c1 | 1.1 | 3268 | -30 | 9 | 2 | · | ·
COc1cccc(C(=O)Nc2ccccc2C(=O)N2CCCC2)c1 | 2.9 | 4595 | -7 | 2 | 4 | · | ·
O=C(COC(=O)c1ccc(Oc2ccccc2)cc1)Nc1nnc(-c2ccccc2)o1 | 28 | 3851 | -17 | 0 | -14 | 3 | 11
CCN(CCNC(=O)C1CC(=O)N(CCc2ccccc2)C1)c1ccccc1 (centres undefined) | 4.2 | 2361 | -4 | 4 | -5 | 10 | 4
CN1CC(=O)N(CC(=O)NCc2ccc(F)cc2)c2ccccc2C1=O | -2.6 | 3895 | -15 | -11 | -2 | · | ·

2 consecutive records from above, for reference:
SMILES | RN4220 kill | Autofluor counter | PrP 5UTR inh | BJeLR lethal | Sa ugtP lethal | Mtb hypoxia inh | Mtb hypoxia inh growth
CCN(CCNC(=O)C1CC(=O)N(CCc2ccccc2)C1)c1ccccc1 (centres undefined) | 4.2 | 2361 | -4 | 4 | -5 | 10 | 4
CN1CC(=O)N(CC(=O)NCc2ccc(F)cc2)c2ccccc2C1=O | -2.6 | 3895 | -15 | -11 | -2 | · | ·

Outcome played no part in choosing rows; 4% or so of the library scored in one or more.
